Source: PubChem BioAssay
Rango release inh = inhibition of RanGTP-driven Rango-importin beta dissociation | O95149+P62826 | Biochemical FRET Rango-importin beta, RanGTP-induced dissociation | Potency, µM (highest dose often 46.1 µM), for the others: at the highest dose activity change, negative = inhibition | hit rate 0.071% among 340,000 | AID 540253; active means falling FRET ratio curve, often poorly fitted, with flat reads before Ran was added; inconclusive means other falling curves, or compound fluorescence or quenching; inactive means flat or rising ratio curve;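 further: potency means the concentration at half of the fitted maximal effect; % of control where 0% means no effect; nearly all actives have a fitted effect of over 45% in size; -100% = wells without RanGTP and RCC1; the record marks most hits as doubtful in a second field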
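Recombinant Rango FRET biosensor (EYFP–snurportin 1 IBB–cerulean CFP10) at 0.1 uM premixed with 0.25 uM importin beta in PBS, 1 mM DTT, 0.02% Tween-20, 0.1% BSA. Compound added 5 min; RanGTP-RCC1 (0.6 uM Ran, 2 mM GTP, 0.2 uM RCC1) then triggers release, read at 45 min.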
GLA inh pH 4.5 = alpha-galactosidase A (human) inhibition, pH 4.5; purified enzyme, 4-MU-alpha-Gal fluorescence, pH 4.5; 230,000 tested, under 10 active; activity change, negative = inhibition, % at 105 µM; P06280; inconclusive = small, poorly fitted or top-dose-only inhibition, or a rising curve; inactive = flat fitted curve, though single readings scatter; no compound was filed as active;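 further: 0% = full activity with enzyme and -100% = basal without enzyme; dose as in the result columns while the protocol names 77 µM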
Target sequence (P06280 whole entry, looked up): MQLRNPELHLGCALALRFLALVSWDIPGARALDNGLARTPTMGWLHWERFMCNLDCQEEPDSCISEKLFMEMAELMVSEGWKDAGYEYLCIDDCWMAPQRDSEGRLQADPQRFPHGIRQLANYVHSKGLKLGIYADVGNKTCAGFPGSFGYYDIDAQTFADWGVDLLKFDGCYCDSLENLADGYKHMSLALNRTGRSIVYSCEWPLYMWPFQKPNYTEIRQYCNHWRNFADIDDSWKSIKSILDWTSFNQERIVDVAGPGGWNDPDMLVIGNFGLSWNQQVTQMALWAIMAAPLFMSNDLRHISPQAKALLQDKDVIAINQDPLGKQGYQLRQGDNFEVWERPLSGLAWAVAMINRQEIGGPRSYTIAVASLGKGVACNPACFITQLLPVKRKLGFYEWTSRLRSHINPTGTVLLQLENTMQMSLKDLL
Rango complex inh = inhibitors of Rango-importin beta complex formation; Q14974; Rango CFP/YFP FRET sensor + importin beta, 45 min; Potency, µM (titrated, usually from 92.2 µM), without a hit: top-dose inhibition of complex formation; hit rate 0.031% among 340,000; active = rising FRET ratio curve, often small or poorly fitted; inconclusive = mostly compound fluorescence or quenching in the first reads; inactive = flat curves in all reads;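 further: potency means the concentration at half of the fitted maximal effect; 0% = DMSO wells and 100% = buffer wells lacking importin beta; nearly all actives have a fitted effect of over 15% in size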
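FRET biosensor Rango (snurportin 1 IBB between N-terminal EYFP and C-terminal Cerulean), 50 nM in PBS/1 mM DTT/0.02% Tween-20/0.1% BSA, preincubated 5 min RT with compound; 0.125 microM importin beta added, 45 min RT, CFP/YFP FRET ratio read.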
miR-21 FLuc = miR-21 reporter, rising signal | Potency, µM (series often up to 38.3 µM), for inactives: top-dose reporter change, positive = more light | AID 2288 | 340,000 tested, under 10 active | HeLa miR-21 FLuc reporter, luciferase, 48 h; active = well fitted rising curve with a large enough effect; inconclusive = small, poorly fitted or top-dose-only effect; inactive = no such curve, though single readings can be large or run the other way;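 further: % of control where 0% means no effect; miR-21 action dims this reporter so a rising signal means less miR-21 action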
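HeLa miR-21-FLuc reporter line, endogenous miR-21; 2000 cells/well in DMEM/10% FBS; compound titration up to ~40uM final, 48 h, 37 degree Celsius; luciferase detection reagent, 15 min lysis, CCD luminescence.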
Numbers without * were called inactive; ? = inconclusive; · = not tested or not shown; & = joins results of further samples; [ ] = dose if it differs, or a comment. These rows are one share of the data. The share of hits here may be higher or lower than overall.

SMILES	Rango release inh	GLA inh pH 4.5	Rango complex inh	miR-21 FLuc
CCc1nc(OCc2ccco2)c2sc3nc4c(cc3c2n1)COC(C)(C)C4	-13%	-4	?	-1%
O=C(Nc1ccccc1N1CCCCC1)C1CCN(C(=O)c2ccc(Cl)cc2)CC1	-15%	·	-4.4%	·
Cc1ccc(C)c(/C=N/Nc2ccccn2)c1	0%	-9	-2.2%	-36%
CN(/N=C/c1cc([N+](=O)[O-])ccc1O)c1ccccc1	-18%	-4	5.6%	-46%
O=C(NC1CCCCCCC1)C1CCN(c2nc3ccccc3o2)CC1	-6%	0	-0.7%	3%
Cc1cc(C)n(C(=O)c2ccc(C)c(F)c2F)n1	5%	3	2.7%	-4%
CCOC(=O)c1c(C2CCN(C(=O)OCC)CC2)nc2ccccn12	-14%	-2	-3.0%	-9%
CCOC(=O)C1=C(COC(=O)/C=C/c2cccc(Cl)c2)NC(=O)NC1C (centres undefined)	12%	·	-3.3%	·
Cc1ccc(CNCc2ccco2)cc1	15%	·	-3.0%	-8%
COc1cccc2sc(NNC(=O)COc3ccccc3)nc12	-15%	5	0.2%	-7%
Cc1cccc(NC(=O)c2ccc(S(=O)(=O)N(C)c3ccccc3)cc2)n1	-6%	·	-5.4%	·
Cn1cc(C(=O)N2CCN(C(=O)c3ccco3)CC2)c2c3ccccc3n(C)c2c1=O	7%	12	7.5%	1%

Next part
SMILES	Rango release inh	GLA inh pH 4.5	Rango complex inh	miR-21 FLuc
CCOC(=O)c1sc(SC)c2c1CCCC2=O	10%	6	4.4%	2%
COc1ccc(NC(=O)NCCCN2CCCC2=O)cc1	3%	-2	0.1%	-18%
CCOC(=O)C1CCN(C(=O)c2ccc(N3CCCC3=O)cc2)CC1	3%	·	2.1%	·
CC(C)(C)c1ccc(OCCNC(=S)NC(=O)c2cccnc2)cc1	1%	0	1.6%	-8%
COc1cc(-c2c(C#N)c(=O)[nH]c3c2c(C)nn3-c2ccccc2)ccc1O	11%	6	-2.4%	-20%
S=C(NCCc1ccccc1)Nc1ncccn1	-10%	·	2.2%	·
Cc1nc(N2CCCCC2)sc1C(=O)c1ccc(Cl)c([N+](=O)[O-])c1	·	-22	·	5%
C=CCN(c1ccc(C(=O)N2CCN(c3ccc(F)cc3)CC2)cc1)S(C)(=O)=O	-6%	-3	1.8%	-1%
CCCCNC(=O)CN1C(=O)COc2ccc(S(=O)(=O)N3CCCCCC3)cc21	1%	·	3.4%	-1%&-2%
COc1ccc(Cn2nnnc2CN2CCc3ccccc32)cc1	5%	-12	0.7%	0%
CCOCC(=O)NC1CCc2cc(OC(=O)COCC)c(OC)c(OC)c2-c2ccc(SC)c(=O)cc21 (centres undefined)	-6%	·	10%	·
COc1ccc(C2NC(=O)c3n[nH]c(C)c32)c(OC)c1 (centres undefined)	-3%	10	-1.1%	-17%

Later entries.
SMILES	Rango release inh	GLA inh pH 4.5	Rango complex inh	miR-21 FLuc
Cc1cccc(NS(=O)(=O)c2ccc(C(=O)NCC(c3ccccc3)N(C)C)cc2)c1C (centres undefined)	8%	·	-2.3%	6%
COc1cccc(C(=O)N(Cc2ccco2)c2c(N)n(Cc3ccccc3)c(=O)[nH]c2=O)c1	-14%	·	-0.3%	·
O=C(NC1CCS(=O)(=O)C1)C1CCCN(S(=O)(=O)c2ccc(Cl)cc2)C1 (centres undefined)	-11%	0	5.4%	-3%
CCOC(=O)/C=C1/SCC(=O)N1CC(=O)Nc1ccccc1OC(F)F	-25%	·	-1.8%	·
CC1CCC2(CC1)NC(=O)N(CC(=O)c1cccn1C)C2=O (centres undefined)	?	-5	-1.1%	-7%
COc1ccc(-c2sc3cc4c(cc3c2C#CCO)OCO4)cc1	-19%	·	?	·
CC(C)(C)C(=O)NC(=S)Nc1ccccc1C(=O)Nc1ccccc1	17%	3	0.3%	-7%
Cc1cccc(C)c1N1CCN(CCn2c(=S)[nH]c3ccccc3c2=O)CC1	-27%	·	1.9%	2%
CC12CCC(C(=O)Nc3nccs3)(OC1=O)C2(C)C (centres undefined)	2%	-3	-2.3%	-3%
CCCc1c2ccccc2nc2ccccc12	?	13	?	-3%
CN(Cc1ccsc1)C(=O)Cn1cc(Br)ccc1=O	-4%	·	1.8%	-43%
Cc1cccc(-c2noc(CCC(=O)NCCc3ccccc3)n2)c1	13%	·	-2.4%	-3%

Next results.
SMILES	Rango release inh	GLA inh pH 4.5	Rango complex inh	miR-21 FLuc
COc1cccc(C(=O)C2CCCN(Cc3cn(C)nc3-c3ccccc3)C2)c1 (centres undefined)	0%	-13	0.2%	-4%
O=C1c2cccc3cccc(c23)C(=O)N1Cc1ccccc1	-9%	8	5.1%	-2%
Cc1cccc(NC(=O)C(c2ccccc2Cl)N2CCOCC2)c1 (centres undefined)	-1%	-4	-1.1%	-19%
C=CCc1cccc(CNc2nc3ccccc3n2C)c1O	1%	·	4.0%	-12%
O=C1NC(=O)/C(=C\c2ccc(Cl)nc2)S1	?	0	-1.4%	-56%
COc1cccc2sc3ccc(C#CC4(N)CCCCC4)cc3c(=O)c12	?	·	?	-36%
N#Cc1c(-c2ccccc2)cc(-c2ccc(O)cc2)nc1N	-28%	·	?	3%
Cc1ccc(NC(=O)COC(=O)CCn2c(C)csc2=O)c([N+](=O)[O-])c1	5%	·	2.6%	·
NC(=O)CN1CCN(S(=O)(=O)c2ccc(Br)cc2)CC1	0%	12[21.1 µM]	-0.4%	-1%
COc1ccc(OCC(=O)Nc2ccccc2C(=O)NC(C)C)cc1	3%	12	-3.3%	-3%
Cc1nc2ccccc2nc(=O)c1NNc1ccc([N+](=O)[O-])cc1	15µM*	0	?	5%
Cc1nc(C/C(=N\N)c2ccc(O)cc2O)cs1	?	-5	?	-21%

The list goes on.
SMILES	Rango release inh	GLA inh pH 4.5	Rango complex inh	miR-21 FLuc
CC(C)Oc1ccc(C2CC(=O)N(c3ccc(C(=O)O)cc3)C2=O)cc1 (centres undefined)	3%	1	6.2%	7%
Cc1cc(Nc2ccc(Br)cc2)nc2ccccc12	?	·	-0.4%	·
CC1(c2ccc(OCC(N)=O)cc2)NC(=O)NC1=O (centres undefined)	1%	·	1.5%	-1%
O=C(NCc1ccccc1)C1(c2ccccc2)CCN(S(=O)(=O)c2ccccc2)CC1	14%	-5	5.1%	1%
COc1cc(/C=C(/C#N)C(=O)Nc2ccccc2)c(Br)cc1OCc1ccc(C(=O)O)cc1	1%	-16	-0.3%	-25%
O=C(NCC1CCCO1)c1cncc(Br)c1 (centres undefined)	6%	-8	-0.2%	-1%
O=C(NCCN1CCOCC1)/C(=C/c1ccc(Cl)cc1)NC(=O)c1ccccc1	9%	·	5.3%	0%
CCOc1ccc(NC(=O)C2CCCN2C(=O)Oc2ccccc2)cc1 (centres undefined)	-8%	·	4.1%	1%
CN(CCO)c1cc(N2CCC3(CC2)OCCO3)c2nonc2c1[N+](=O)[O-]	30%	-7	-0.1%	1%
CCC(Sc1nc(N)c(NC(=O)c2ccc(Br)o2)c(=O)[nH]1)C(=O)O (centres undefined)	-7%	·	0.7%	0%
CCOc1ccc(-c2cccc(NC(=O)COc3ccccc3)c2)nn1	-8%	·	1.7%	-14%
COc1ccc(N(CC(=O)O)S(C)(=O)=O)cc1OC	6%	-5	-0.7%	-3%

Next section.
SMILES	Rango release inh	GLA inh pH 4.5	Rango complex inh	miR-21 FLuc
O=[N+]([O-])c1ccc(Sc2nccn2Cc2ccccc2)c([N+](=O)[O-])c1	12%	-9	0.4%	30%
NC(=O)CSc1nc2scc(-c3ccc(Cl)cc3)c2c(=O)n1Cc1ccccc1	5%	-5	6.0%	-3%
O=C(Nc1ccc(Cl)cc1)c1cc2nc(-c3ccco3)cc(C(F)(F)F)n2n1	?	-2	?	-10%
CC(C)(C)c1ccc(N=C2SCC(=O)N2Cc2cccs2)cc1	0%	-15	0.0%	-26%
CCn1nc(C)c(/C=N/NC(=O)Cn2nnnc2N)c1C	-12%	-13	2.3%	-3%
C=C(c1ccccc1C)[n+]1ccccc1	11%	·	-0.5%	1%
COc1ccc(C(=O)NC(C(=O)N2CCc3ccccc32)C(C)C)cc1 (centres undefined)	-2%	9	-0.6%	-13%
COC(=O)C(c1cc(OC)c(O)c(OC)c1)(N1CCNC(C)C1)C(F)(F)F (centres undefined)	8%	1	2.0%	-9%
Cc1nnc(SCC(=O)Nc2nsc(-c3ccccc3)n2)s1	-15%	3	-2.7%	-11%
O=C(CSc1nc2cc(Cl)ccc2s1)NCc1ccc2c(c1)OCO2	-12%	1	-3.8%	-7%
COc1ccc(Oc2cc(F)nc(N)n2)cc1	-14%	3	1.3%	-13%
O=C(/C=C/c1ccc(F)cc1)NCCCn1ccnc1	-13%	·	-1.7%	-7%

Compound profiles, as listed above. Order of values: Rango release inh, GLA inh pH 4.5, Rango complex inh, miR-21 FLuc
`COc1ccc(C(=O)NC(C(=O)N2CCc3ccccc32)C(C)C)cc1` (centres undefined) across the screens: -2%, 9, -0.6%, -13%
`O=C(CSc1nc2cc(Cl)ccc2s1)NCc1ccc2c(c1)OCO2` across the screens: -12%, 1, -3.8%, -7%

Further entries:
SMILES	Rango release inh	GLA inh pH 4.5	Rango complex inh	miR-21 FLuc
CCCc1cnc(NCCNCC(O)COc2ccc(Cl)c(Cl)c2)nc1 (centres undefined)	-7%	-7	1.3%	?
CCCCn1ccc(O)c(Cc2ccc(F)cc2)c1=O	1%	-3	0.9%	1%
O=C(NC(=S)Nc1cccc(Cl)c1)c1cncc(Br)c1	-10%	·	3.2%	·
O=c1[nH]cnc2c1N1CCC2CC1	-5%	-8	-2.4%	0%
COc1ccc(CNC(=S)Nc2ccc(F)c(Cl)c2)cc1	8%	3	0.5%	-8%
COc1cc(CC(=O)NCc2ccco2)cc(OC)c1OC	7%	0	-3.6%	1%
CS(=O)(=O)c1cccc(C(=O)Nc2cccc(S(=O)(=O)N3CCCC3)c2)c1	-2%	·	-2.1%	·
Cc1c(Cl)c([N+](=O)[O-])nn1CC(=O)Nc1ccc2c(c1)OCO2	-11%	3	-0.6%	-17%
O=C(CCCCCNC(=O)N1CCn2c1nc1ccccc12)NCc1ccc(F)cc1	3%	·	-0.7%	0%
O=C(Cn1nc(-c2ccc3c(c2)OCCO3)ccc1=O)Nc1cccc(NC(=O)c2ccccn2)c1	·	2	·	-5%
CC1=NN(c2nc(-c3ccc(F)cc3)cs2)C(=O)C1	-13%	1	0.3%	-2%
COc1ccc(CNC(=O)COC(=O)CO/N=C(\C)c2ccc3c(c2)OCO3)cc1	-5%	·	3.6%	·

(further entries)
SMILES	Rango release inh	GLA inh pH 4.5	Rango complex inh	miR-21 FLuc
CCCN1CCN(c2ncnc3scc(C4COc5ccccc5O4)c23)CC1 (centres undefined)	13%	-7	2.9%	11%
Cc1ccc(CNC(=O)C2CC(c3ccc([N+](=O)[O-])cc3)=NO2)cc1 (centres undefined)	?	0	5.4%	-8%
CN(C)C(=O)Cn1cc(S(=O)(=O)Cc2ccccc2)c2ccccc21	2%	·	2.0%	-1%
O=C(N/N=C/c1ccco1)c1ccc(N2CCCC2=O)cc1	11%	5	-3.2%	-23%
CC(C)(C)NS(=O)(=O)c1ccc(CCC(=O)NCc2cccnc2)cc1	6%	-1	0.7%	1%
Cc1noc(C)c1NC(=O)NCCN1CCN(Cc2ccccc2)CC1	4%	-2	-4.4%	0%
Cc1nn(C)c(C)c1NC(=O)c1ccnn1C	-12%	1	-0.9%	0%
CC(C)COP(=O)(c1ccc(N(C)C)cc1)C(O)c1ccc(Br)cc1 (centres undefined)	-14%	·	-0.1%	0%
CCOC(=O)c1c(CSc2ccccc2)n(C)c2ccc(O)c(CN3CCN(C)CC3)c12	1%	-3	5.5%	2%
COc1ccc(CCNC(=O)COc2ccc(C)nc2[N+](=O)[O-])cc1OC	-7%	9	-1.3%	-11%
CCCCc1ccc(NS(=O)(=O)c2c(C)n(C)c(=O)n(C)c2=O)cc1	7%	·	-1.8%	-2%
Cc1ccccc1Nc1nc(N)nc(CSc2nc3ccccc3s2)n1	-9%	-8	-1.4%	-42%
O=C(O)CN1CCCC1=Nc1ccccc1	3%	1	0.8%	1%
CCCc1nnc(NC(=O)C2CC(=O)N(CCc3ccc(F)cc3)C2)s1 (centres undefined)	6%	·	0.8%	7%
